NPYLR7 agonist: agonists of mosquito NPYLR7 receptor, primary screen, cell-based, Aedes aegypti, calcium fluorescence, mosquito biting behavior. activation, % at 10 µM. 270,000 compounds, 0.15% hits. HEK293T NPYLR7/Galpha15, GCaMP6s calcium fluorescence. AID 1259423, 2018; in the data active = activation above about 40%;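 also: 0% = vehicle and 100% = reference agonist at the receptor; some compounds past the cut are filed as inactive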
NPYLR7 agonist max-min: second read-out of NPYLR7 agonist, no call of its own (marks repeat the call); activation, %; measured here: Max-Min RFU normalised activation; some inactives read as strong as hits;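 span of the calcium signal over five minutes; 0% = vehicle and 100% = native peptide agonist; compound fluorescence can raise it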
* = called active by the depositor; & = joins results of further samples. This is a subset (hit frequency here may not be typical).

Values run as follows: NPYLR7 agonist	NPYLR7 agonist max-min
> CC(C)n1ccnc1CN1CCOC(CN)C1 (centres undefined)
  4	-5
> CCOC(=O)c1c[nH]c2ccccc2c1=O
  0	-2
> c1cc2c(cc1-c1noc(CN3CC[C@@H]4CCCC[C@H]4C3)n1)OCO2
  -13	-14
> Brc1ccc(-c2ccc(Br)cc2)cc1
  5	4
> Cc1nc(SCC(=O)Nc2ccccc2F)c2c3c(sc2n1)CCC3
  -2	-7
> CCOc1cccc2sc(N(CCCn3ccnc3)C(=O)c3ccco3)nc12
  -11	-18
> Cc1nc(COC(=O)CCc2ccco2)n[nH]1
  -3	-11
> CC(=O)Nc1ccc(C(=O)N2CCOC(c3ccc(F)cc3)C2)c(O)c1 (centres undefined)
  3	0
> CCN(CC)C(=O)Cn1cc(C(=O)N(C)Cc2cnc3ccccn23)nn1
  4	-3
> CC1(C)CC(OC(=O)c2ccncc2)CC(C)(C)N1O
  3	1
> CC(=O)Nc1ccc(CN2C(=O)C3(CCC3)ON=C2c2cccc(Cl)c2)cc1
  8	7
> COc1ccccc1OC1CN(C(=O)c2ccc(NC(C)=O)cc2)C1
  0	1
> O=C(C(Cl)Cl)N1CCN(CCCOC(c2ccc(Cl)cc2)c2ccc(Cl)cc2)CC1
  31	31
> O=C1[C@H]2CC=CC[C@H]2C(=O)N1CCNc1ccc([N+](=O)[O-])cn1
  -4	-12
> CCN(Cc1ccccc1)S(=O)(=O)N1CCc2cc(S(=O)(=O)NC)ccc21
  6	3
> Cc1ccc2nc(-c3cccc(NC(=O)c4ccco4)c3)oc2c1
  -2	14
> Cn1cccc1-c1csc(NC(=O)CCOCC(F)(F)F)n1
  2	31
> COCCN(Cc1cccc(OS(=O)(=O)c2ccc(F)cc2)c1)C(=O)Nc1ccc(SC)cc1
  1	-1
> Cc1cccc2nc(-c3ccc(F)cc3)c(NC(C)(C)C)n12
  -9	-5
> CN1CC2(CCCN(C(=O)CCCn3cncn3)CC2)OC1=O (centres undefined)
  -1	-12

Overlap with the part before: 6 compounds, followed by the next part.
Values run as follows: NPYLR7 agonist	NPYLR7 agonist max-min
> CCN(Cc1ccccc1)S(=O)(=O)N1CCc2cc(S(=O)(=O)NC)ccc21
  6	3
> Cc1ccc2nc(-c3cccc(NC(=O)c4ccco4)c3)oc2c1
  -2	14
> Cn1cccc1-c1csc(NC(=O)CCOCC(F)(F)F)n1
  2	31
> COCCN(Cc1cccc(OS(=O)(=O)c2ccc(F)cc2)c1)C(=O)Nc1ccc(SC)cc1
  1	-1
> Cc1cccc2nc(-c3ccc(F)cc3)c(NC(C)(C)C)n12
  -9	-5
> CN1CC2(CCCN(C(=O)CCCn3cncn3)CC2)OC1=O (centres undefined)
  -1	-12
> COCCN(Cc1cccc(OC)c1OC)CC(O)COCC(C)C (centres undefined)
  13	10
> O=C(NCC1CCCCC1)c1sc2cc(F)ccc2c1Cl
  -2	-16
> COc1ccccc1CCC(=O)N1CC[C@@H](c2ccc(F)cc2)[C@H](O)C1
  4	2
> O=C(Cc1ccc(Cl)cc1)NCCc1csc2nc(-c3ccccc3F)nn12
  -7	-6
> CC1(C)CC(N2CCCC2)=CC(=[N+]2CCCCCC2)C1
  0	-2
> Cc1nc(CC(=O)NS(=O)(=O)C(C)CC(C)C)cs1 (centres undefined)
  5	11
> CCOC(=O)C1CCN(C2CCN(c3ccc(C(=O)NCc4ccccc4F)cc3)CC2)CC1
  6	3
> O=C(NC(c1ccc(Cl)cc1)c1ccccn1)C1CCN(CCOc2ccc3ccccc3c2)CC1 (centres undefined)
  1	-3
> CC(C)CC(NC(=O)c1ccc(C#N)cc1)c1ccccc1 (centres undefined)
  -2	-1
> COc1ccccc1CCc1nnc(CCC(=O)NC2Cc3ccccc3C2)o1
  9	4
> CC(C)n1c(-c2ccco2)csc1=Nc1cccnc1
  -5	-6
> O=C(CC(c1cccc(O)c1)c1ccccc1Cl)NC1CCC1 (centres undefined)
  6	1
> O=C(CCC1CCCO1)Nc1cc(F)ccc1O (centres undefined)
  -5	-8
> CNC(=O)C1Cc2c(-c3ccc4c(c3)OCO4)ccnc2O1 (centres undefined)
  0	-2
> COCCc1nc2ccc(C(=O)N3CCCC(C(=O)c4cccnc4)C3)cc2o1 (centres undefined)
  3	0
> CN(C)[C@@H]1C[C@@H](C(=O)O)N(Cc2ccncc2)C1
  3	-1
> COCCCN(Cc1c(-c2ccccc2)noc1N(C)C1CCCCC1)CC(O)COC(C)C (centres undefined)
  6	7
> c1cncc(-c2nc3cc(Cc4ccc5oc(-c6cccnc6)nc5c4)ccc3o2)c1
  13	12
> O=C(c1ccncc1)N1N=C2CCCCC2C1(O)C(F)(F)F (centres undefined)
  3	5
> COc1cc(OC)c(N=c2ccccn2C)cc1Cl
  3	0
> c1cc(-c2cscn2)cc(-n2ccnc2C2CC2)c1
  5	4
> COc1ccccc1Oc1cc(N2CCCC2)ncn1
  -4	2
> C#Cc1ccc2c(c1)C(=O)N(C)Cc1c(C(=O)OCCCOC(=O)c3ncn4c3CN(C)C(=O)c3cc(C#C)ccc3-4)ncn1-2
  5	-6
> Cc1cccc(NC(=O)/C=C/C2=C(Cl)c3ccccc3S2(=O)=O)c1C
  10	9
> COCCNC(=O)c1ccc(CSc2nnc(C)n2-c2ccc(F)cc2)cc1
  25	28
> C=CCN(CC(O)COCc1ccccc1)CC1CC(c2ccc(Cl)cc2)=NO1 (centres undefined)
  -3	-2
> CC(=O)N1CSCC1C(=O)Nc1ccc(N2CCCCCC2)cc1 (centres undefined)
  -4	-7
> COCC(C)NC(=O)C(C#N)=Cc1cc(Cl)c(OC)c(OC)c1 (centres undefined)
  1	-2
> CC1(C(=O)Nc2cccc3cccnc23)CCN1C(=O)Cc1ccsc1 (centres undefined)
  -4	-11
> COc1cccc(NC(=O)C2(C)CCN2CC(C)C)c1 (centres undefined)
  8	-3
> CCOC(=O)CCNc1ccc(Nc2ccc(C)cc2)c2c1C(=O)c1ccccc1C2=O
  -6	-10
> CC(N)=C(C#N)C(=O)COC(=O)CN1C(=O)C2CCCCC2C1=O (centres undefined)
  3	3
> O=C(c1ccc(N2CCC(NCc3cccc(Cl)c3)CC2)cc1)N1CCCC(CO)C1 (centres undefined)
  9	7
> CCCCN(CC(=O)N1CC(=O)N(c2cccc(C)c2)C1)C(=O)c1ccccc1F
  12	14
> CCOc1ccc(-n2c(SCc3ccc(C)cc3)nc3c(c2=O)SCC3)cc1
  0	39
> COc1cc(S(=O)(=O)N2CCC(C(N)=O)CC2)ccc1Br
  4	4
> CNc1ccc(-c2cccc(F)c2)cn1
  3	1
> Cc1cc(NCc2csc(-c3cnccn3)n2)nc(-c2cccnc2)n1
  10	6
> C=C1c2ccccc2C(=O)N1CC(=O)Nc1ccc2c(c1)OCCO2
  -2	5
> CC1CCN(CC(=O)Nc2ccc(F)cc2F)CC1
  -5	-5

Further results follow.
| molecule | NPYLR7 agonist | NPYLR7 agonist max-min |
| --- | --- | --- |
| CC(NC(=O)c1ccc(-n2cnnc2)cc1)c1ccccc1-n1cccn1 (centres undefined) | 10 | 6 |
| Cc1ccc(-n2nnc(C(=O)Nc3ccc4oc(=O)ccc4c3)c2C)cc1 | 0 | -4 |
| CSc1ccccc1C(=O)N1CCN(c2nccn2-c2cccc(Cl)c2)CC1 | 3 | 5 |
| O=c1ccc2nccc3c4ccccc4n1c23 | -5 | -13 |
| COC(=O)CN1C(=O)SC(=Cc2ccccc2OCc2ccccc2Cl)C1=O | 14 | 16 |
| CN(C)CCN(Cc1ccccc1)S(=O)(=O)NCc1ccccc1 | -3 | -7 |
| CC1CCCCC1NC(=O)c1ccc2c(c1)CCN2S(C)(=O)=O (centres undefined) | 4 | 1 |
| O=C(Nc1nncs1)c1cccnc1SCC1CCCCC1 | 1 | -3 |
| Cc1ccsc1C(=O)N1CCC1(C)C(=O)Nc1cc(C2CC2)nn1C (centres undefined) | 5 | 3 |
| CNCC(=O)N1CCCCC1c1ccc(CN(C)C)cc1 (centres undefined) | 14 | 0 |
| O=C1NCC(=O)N2CCN(C(=O)CCc3c[nH]c4ccccc34)CC12 (centres undefined) | -4 | -5 |
| O=C1NC(=S)NC(=O)C1=C1C=C(c2ccccc2)N(Cc2ccccc2)C2=C1CCCC2 | -9 | -13 |
| COCCn1c(=NC(=O)c2ccc3ncsc3c2)sc2cc(S(N)(=O)=O)ccc21 | 4 | 1 |
| C=C(C)Cn1c(=O)c2c(nc3n2CC(C)CN3c2ccc(Cl)cc2)n(C)c1=O (centres undefined) | 6 | 4 |
| CC(=O)Nc1ccc(SCC(=O)Nc2ccc3oc(C)nc3c2)cc1 | 12 | 11 |
| Cc1cc(C)c(NC(=O)Cn2nc3ccc(SC4CCCCC4)nn3c2=O)c(C)c1 | -1 | -7 |
| CCN(Cc1noc(C2CCC2)n1)Cc1nnc(-c2ccc(C)n2C)o1 | 20 | 8 |
| Cc1ccc(C(O)=C2C(=O)C(=O)N(CCCN(C)C)C2c2cccnc2)cc1 (centres undefined) | 4 | 3 |
| Cc1ccc(Cn2c(=O)c3c(nc4n(CC5CCCO5)c(C)c(C)n34)n(C)c2=O)cc1 (centres undefined) | -3 | 27 |
| Cc1cccc(CNC(=O)C(c2ccccc2)N2CCSCC2)n1 (centres undefined) | 9 | 6 |
| CCCCC(Sc1nncs1)C(=O)Nc1cc(C)on1 (centres undefined) | 3 | 1 |
| CCC1=NS(=O)(=O)c2cc(N)ccc2N1c1ccc(F)cc1 | 25 | 10 |
| Cc1nc2n(c(=O)c1C)C(CC(=O)Nc1ccon1)CS2 (centres undefined) | 1 | 2 |
| O=S(=O)(c1ccccc1F)N1CCC(CCc2ccccc2)CC1 | 3 | 6 |
| COc1cccc(CN2CCn3nc(C(=O)NCc4ccncc4)cc3C2=O)c1 | 19 | 25 |
| COc1cc2c(C(=O)O)c(C)n(-c3ccccc3Cl)c2c2ccccc12 | -2 | -10 |
| CSc1ccccc1N1C(=O)C2CC=CCC2C1=O (centres undefined) | 1 | 1 |
| O=C(c1csc(CSc2nnc(-c3ccncc3)n2-c2ccccc2)n1)N1CCN(c2ccccc2Cl)CC1 | -15 | -6 |
| CN1CCC(N(C)C/C=C/c2ccccc2[N+](=O)[O-])CC1 | 0 | -1 |
| CC1(C)C[C@H]2C[C@@H](O)[C@H](N3CCN(c4ccccn4)CC3)[C@]2(O)CO1 | 4 | 12 |
| CC1(C2CCN(C(=O)C3=CCCC3)CC2)NC(=O)N(Cc2ccc(F)cc2)C1=O (centres undefined) | 5 | 0 |
| O=C(CSc1nc(=O)n(CCCO)c2c1CCCC2)N1CCc2ccccc21 | -4 | -15 |
| CCOC(=O)Cn1cnc2c(nnn2-c2cccc(OC)c2)c1=O | 5 | 6 |
| CN(Cc1cccs1)C(=O)CSc1nc2ncc(Cl)cc2[nH]1 | 2 | 1 |
| Cc1cccn2c(=O)cc(CSc3nnc(NC4CC4)s3)nc12 | 8 | 15 |
| CCN1C(=O)C(=Cc2cc(OC)c3c(c2)OCCO3)SC1=S | 0 | 5 |
| CS(=O)(=O)c1ccc(Cl)c(C(=O)NCCc2cc3ccccc3[nH]2)c1 | 0 | 0 |
| COc1ccc(Cl)cc1/C=C1\N=C(SC)SC1=O | -1 | -5 |
| COc1ccc(-c2cc(-n3cccn3)nc(C)n2)c(OC)c1OC | -1 | 6 |
| CCn1c(=S)[nH]c2scc(-c3cccs3)c2c1=O | 0 | 1 |
| Cc1cc(C)nc(NC(=O)C23CC4CC(CC(C4)C2)C3)n1 | 5 | 3 |
| COc1ccc(CN2C3CCC2CC(NC(=O)Cc2ccc(Cl)cc2)C3)c(OC)c1 (centres undefined) | 0 | 4 |
| CC1CC(C)C[N+](=C2C=C(N3CCCC3)CC(C)(C)C2)C1 (centres undefined) | 3 | 1 |
| CC[C@H](Nc1ncnc2nc[nH]c12)c1nc2cccc(F)c2c(=O)n1-c1ccccc1 | -6 | -10 |
| O=c1cc(-c2ccccc2)[nH]n1-c1ccc(F)cc1 | -2 | -4 |

Compound profiles, as listed above. Values in the order: NPYLR7 agonist	NPYLR7 agonist max-min
Entry for CC[C@H](Nc1ncnc2nc[nH]c12)c1nc2cccc(F)c2c(=O)n1-c1ccccc1 = -6	-10
Entry for O=c1cc(-c2ccccc2)[nH]n1-c1ccc(F)cc1 = -2	-4

(further entries)
| molecule | NPYLR7 agonist | NPYLR7 agonist max-min |
| --- | --- | --- |
| COc1cc(-c2nc3cc(C)ccn3c2NC(C)(C)CC(C)(C)C)ccc1OS(=O)(=O)c1ccccc1 | 3 | 7 |
| COc1cccc2c1OC1(C)CC2C(S(=O)(=O)c2ccc(C(C)(C)C)cc2)C(=O)N1C (centres undefined) | 4 | 7 |
| COc1ccc(CCN2C(=O)C3C4C=CC(C4)C3C2=O)cc1OC (centres undefined) | -13 | -17 |
| CCn1cc(C(=O)N2CCc3c([nH]c4ccccc34)C2C2CCCCC2)cn1 (centres undefined) | 15&14 | 14&12 |
| COc1ccc(C(=O)N2CCCC2(C)C(=O)O)cc1OC (centres undefined) | -2 | -6 |
| N[C@@H](Cc1ccc(O)cc1)C(=O)NCC1(CO)CCCC1 | 3 | -5 |
| C/C(=C\c1ccco1)C1CC(=O)Nc2nn3c(C)cc(C)nc3c21 (centres undefined) | 17 | 11 |
| O=C(CSc1nnc2sc3ccccc3n12)Nc1ccccc1C(F)(F)F | -5 | -9 |
| COCC(=O)N1CCN(c2cc(-n3cccn3)nc(C)n2)CC1 | -7 | -9 |
| Cc1ccn2c(NC(=O)CC(C)(C)C)c(-c3cc(F)ccc3F)nc2c1 | -4 | 1 |
| COCCCC(=O)Nc1cccc(NC2CCCC2)c1 | -2 | -2 |
| COc1ccccc1NC(=O)N1CCC2(CC1)SCCN2C(=O)c1cccc(C)c1 | 1 | 15 |
| CN(Cc1ccc(Br)s1)C(=O)CSCc1ccc(C#N)cc1 | 4 | 2 |
| COCCn1ccc2c(OCC(=O)c3ccc(OC)cc3)cccc2c1=O | -2 | 19 |
| Cn1c(-c2ccncc2)nn(CN2CCN(S(=O)(=O)c3ccccc3F)CC2)c1=S | 8 | 16 |
| COc1cc(C(=O)NC(C)c2cnn(-c3ccccc3C)c2C)cc(OC)c1OC (centres undefined) | 8 | 6 |
| COc1ccc(N=c2scc(C)n2CCCO)cc1 | -4 | -9 |
